Arbovirus anti: antivirals against arbovirus infection, primary screen, cell-based, full library, 10K replicate subset. inhibition, % at 10 µM. arbovirus infection cell-based antiviral screen. hit rate 0.37% among 200,000;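 active = inhibition from about 30%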;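 also: bluetongue infection of BSR cells; cell survival read as ATP light after 72 h; 0% = infected wells without compound and 100% = uninfected wells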
YopH PTP inh: YopH tyrosine phosphatase inhibitors, primary screen, biochemical, fluorescence Ex485/Em525. YopH tyrosine phosphatase [Yersinia enterocolitica]. inhibition, %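 (about 10 µM by stock and volumes)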. hit rate 0.16% among 140,000;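 active = inhibition of 50% or more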;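 also: controls were vehicle for no effect and minimum signal wells for full effect; inactives centre near -20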
RecA intein inh: Mtb RecA intein splicing inhibitors, primary screen, biochemical, fluorescence, HTS; cell-free RecA intein splicing; inhibition, %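 (about 9 µM by stock and volumes)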; hit rate 0.75% among 290,000; in the data active = inhibition above about 30%; inconclusive = no clear call, values can overlap the other calls;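 also: 0% = vehicle wells and 100% = reference inhibitor control wells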
Target sequence (P9WHJ3 whole entry, looked up): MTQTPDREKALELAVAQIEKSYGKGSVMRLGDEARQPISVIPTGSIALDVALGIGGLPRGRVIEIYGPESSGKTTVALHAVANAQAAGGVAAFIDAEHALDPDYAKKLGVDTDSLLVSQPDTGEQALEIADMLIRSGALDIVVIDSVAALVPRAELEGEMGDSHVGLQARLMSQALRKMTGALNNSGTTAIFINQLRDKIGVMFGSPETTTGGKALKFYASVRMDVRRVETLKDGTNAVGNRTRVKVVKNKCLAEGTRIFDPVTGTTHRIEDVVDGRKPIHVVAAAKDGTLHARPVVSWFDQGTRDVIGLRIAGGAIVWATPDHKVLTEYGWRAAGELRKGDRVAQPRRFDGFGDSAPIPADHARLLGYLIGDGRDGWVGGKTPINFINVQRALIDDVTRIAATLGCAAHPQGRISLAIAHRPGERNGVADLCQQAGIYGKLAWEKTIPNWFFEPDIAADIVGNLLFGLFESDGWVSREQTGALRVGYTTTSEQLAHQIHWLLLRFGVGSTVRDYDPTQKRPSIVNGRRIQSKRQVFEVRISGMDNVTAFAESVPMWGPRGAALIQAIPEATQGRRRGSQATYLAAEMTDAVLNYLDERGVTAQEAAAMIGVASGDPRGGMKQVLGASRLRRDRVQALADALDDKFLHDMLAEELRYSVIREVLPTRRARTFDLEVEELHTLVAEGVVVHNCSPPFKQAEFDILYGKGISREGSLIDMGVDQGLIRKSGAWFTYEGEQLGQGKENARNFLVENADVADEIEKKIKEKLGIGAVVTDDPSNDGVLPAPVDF
Mtb bLac sens: beta-lactam sensitization of Mtb H37Rv, H37Rv | M. tuberculosis H37Rv growth with meropenem, percent inhibition; hits of this screen are not shown here | hit rate 0.27% among 330,000 | inhibition, % at 25 µM;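 active = about 74% or more and at least 40 points above the plate without the antibiotic, then above 30% in a dose series; inconclusive = first-round hits that could not be retested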;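 also: growth measured after seven days incubation then overnight dye step; 0% = bacteria only wells and 100% = bacteria with antibiotic; twin plates without the antibiotic show which effects depend on it; some results filed as inactive read as strong as hits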
Mtb growth: M. tuberculosis H37Rv growth inhibitors, H37Rv strain (AID 1626). M. tuberculosis H37Rv growth inhibition; higher % means a stronger effect. inhibition, % at 10 µM, or IC50 in µM where a hit was titrated. hit rate 0.95% among 220,000;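 active = confirmed in a dose series; inconclusive = inhibition above 80% but not taken into the dose series; inactive = below 80% or under 30% at every dose of the series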;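 also: bacteria incubated seven days before Alamar blue readout; 0% = bacteria only wells and 100% = bacteria with antibiotic wells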
Arbovirus anti repeat: second read-out of Arbovirus anti, no call of its own (marks repeat the call); inhibition, %; measured here: 10K subset replicate screen; many hits read low in the repeat;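 first of two repeat runs on a subset; 0% = infected and 100% = uninfected wells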
Active calls of the source: *; u = inconclusive; x = not tested or not shown. These rows are one share of the data; rates above refer to the full screens.

SMILES	Arbovirus anti	YopH PTP inh	RecA intein inh	Mtb bLac sens	Mtb growth	others
CCCC(=O)C1=C(O)C(C(=O)OC)C(C)(C)CC1=N (centres undefined)	8.8	-22.1	-0.6	7.1	-5.2%	Arbovirus anti repeat=-0.1
COc1ccc(-c2[nH]nc3c2C(c2ccc(OC(=O)N4CCOCC4)cc2)C(C#N)=C(N)O3)cc1 (centres undefined)	-9.4	-24.2	x	-2.3	x
CCn1c(Cc2ccccc2)nnc1SCC(=O)Nc1nnc(-c2ccccc2)s1	1.0	-22.7	0.0	-10.3	-3.1%
CCCOc1ccc(N2C(=O)CC(NNC(=O)c3ccc(COc4ccccc4)o3)C2=O)cc1 (centres undefined)	2.2	-18.0	-2.9	-0.1	0.3%
O=C(Cc1ccsc1)NNC(=O)c1ccccc1O	x	x	-6.4	-7.6	x
CCC(C)NC(=O)CSC1=Nc2ccccc2C2=NC(CC(=O)NCc3ccccc3)C(=O)N12 (centres undefined)	1.6	-11.1	-0.5	-7.5	-9.9%
O=C(O)CSc1nnc(-c2ccncc2)n1Cc1ccccc1	3.3	-1.4	-3.1	-12.1	-17.1%
COc1cccc(CN2CC(C(=O)NCCOc3ccccc3)CCC2=O)c1 (centres undefined)	x	x	-1.2	2.4	x
COc1ccc(/C=C2\SC(=O)N(CC(=O)NCCCn3ccnc3)C2=O)cc1	x	x	0.1	3.4	x
COc1ccccc1-c1cc2nc(C)c(CCC(=O)NCc3ccc(F)cc3)c(C)n2n1	x	x	-1.0	38.4	x
Cc1[nH]n2c(=O)c3c(nc2c1-c1ccc(F)cc1)CCCC3	-4.4	x	-4.2	99.8	u
CC1(C)CC(=O)C(=CN2CCOCC2)C(=O)C1	7.8	x	-2.8	0.7	5.2%
Cc1ccc(C)c(OCCC(=O)OCC(=O)N2CCN(c3ccccc3)CC2)c1	x	x	-2.5	u	x
CCOc1ccc(NS(=O)(=O)c2ccc(C(=O)N3CCC3)cc2)cc1	x	x	0.4	4.5	x
COc1ccc(OC)c(CNc2ccc3c(c2)nc(C)n3C)c1	x	x	6.1	-5.0	x
COc1cc2oc(=O)c(Br)c(C)c2c(OC)c1OC	-3.4	-35.1	x	-0.3	0.2%
COc1nc(OC)nc(N2CCCCCC2)n1	12.8	-10.5	5.3	1.3	-0.6%
O=C(NC1CCCCC1)NC1(C(=O)NCCCN2CCOCC2)CCCCC1	-0.5	-31.6	-2.1	-8.0	-5.9%
CN1C(=O)C(CC(=O)Nc2ccc(F)cc2)N(CCCc2ccccc2)C1=S (centres undefined)	-26.7	-25.0	4.9	-4.9	-1.8%
Oc1ccc(C2Nc3cccc4cccc(c34)N2)cc1	x	x	2.2	3.7	x
COc1ccc(C(=O)N[C@H](C(=O)NCc2ccco2)C(C)C)cc1	-0.6	x	1.6	17.2	-10.0%
CC(C)C(NS(=O)(=O)c1cccs1)C(=O)NCc1ccccc1Cl (centres undefined)	-8.6	x	-2.4	-7.1	-0.4%
COc1ccccc1N1CC(O)=C(c2nc3ccccc3s2)C1=N	-18.3	-36.3	4.6	3.0	15.6%
Cc1cc(C)nc(SCc2ccc3nonc3c2)n1	0.1	-2.6	-0.9	-1.4	1.5%	Arbovirus anti repeat=4.2
CC(Nc1ccnc2cc(Cl)ccc12)c1ccc(S(N)(=O)=O)cc1 (centres undefined)	x	x	-0.5	2.5	x
Cc1ccc(NC(=O)CCC(=O)NNC(=O)COc2ccccc2)cc1C	-4.0	3.5	-2.4	46.4	52.4%
Cc1cc(NC2CCCCC2)n2c(n1)nc1ccccc12	5.0	x	-11.4	13.8	1.0%
O=[N+]([O-])c1cccc(/C=C/C=N/Nc2nc(N3CCCCC3)nc(N3CCCCC3)n2)c1	0.3	x	3.3	57.4	u
Cc1ccc(C)c(N2CCN(C(=O)c3ccc4nc(-c5ccco5)c(-c5ccco5)nc4c3)CC2)c1	-2.6	-4.5	7.5	88.1	2.6%
O=CN1CCN(c2c([N+](=O)[O-])c(=O)oc3ccccc23)CC1	x	x	-3.5	5.6	x
Cc1ccc(NC2=C/C(=N\S(=O)(=O)c3cccs3)c3ccccc3C2=O)c(C)c1	-36.7	-9.9	41.4*	100.2	3.89µM*
Cc1sc2nc(Cc3ccccc3)[nH]c(=O)c2c1-c1ccccc1	2.1	-4.4	-1.5	-1.0	-4.7%
O=C(NCCc1ccccc1)c1cc(S(=O)(=O)N2CCCC2)ccc1F	x	x	1.7	0.6	x
CC1(c2nnc(-c3cccc(Cl)c3)o2)CC(c2ccc(C#N)cc2)=NO1 (centres undefined)	x	x	0.7	0.8	-1.0%
Nc1sc(-c2ccccc2)cc1-c1n[nH]c(=S)n1C1CCCCC1	x	x	-3.0	-11.3	1.0%
Cc1ccccc1N1CCN(Cc2cc3c(cc2[N+](=O)[O-])OCO3)CC1	x	x	-3.2	8.7	x
COCc1nnc(NC(=O)CCCOc2ccccc2OC)s1	6.3	-50.7	-3.3	-7.2	1.1%
COc1ccc(C(=O)NCC(=O)N/N=C/c2ccco2)cc1OC	x	x	-1.1	5.3	x
COc1ccc(C(=O)SC2=NCCS2)cc1OC	-0.5	-11.7	0.4	u	-9.0%
CC1CC(=O)C2=C(C1)Nc1ccccc1N(C(=O)COc1ccccc1)C2c1ccco1 (centres undefined)	7.0	-4.6	1.1	-3.1	-7.0%
CN1CCN(C(=O)CCC(=O)NCc2ccc(F)cc2)CC1	x	x	-1.7	-0.1	x
CCCS(=O)(=O)N1CCCC(C(=O)Oc2ccccc2Cl)C1 (centres undefined)	x	x	3.1	1.9	x
COc1ccc(/C(C)=N/Nc2ccc(C(=O)O)cc2)cc1OC	-0.9	-24.1	-7.9	9.6	14.7%
COc1ccc(C2CC(c3ccccc3)=NN2C(=O)CSc2ncccn2)cc1 (centres undefined)	-12.6	-24.5	-0.9	-0.9	-4.4%
COc1ccc(C2=NS(=O)(=O)N(C)C(C(=O)N(C)Cc3ccccc3)=C2)cc1	x	x	8.7	2.1	x
C/C(=N/NS(=O)(=O)c1ccc(C(C)(C)C)cc1)c1ccc2c(c1)OCO2	x	x	4.5	-0.9	x
COc1ccc(NC(=O)CN(C)C(=O)c2ccc(-c3ccccc3Cl)o2)cc1	x	x	1.2	-1.5	x
Cn1c(SCC(=O)NCc2cccs2)nnc1-c1ccco1	2.4	-2.0	0.8	u	-3.6%
Cc1ccc(S(=O)(=O)N2CCN(C(=S)NCCc3ccccc3)CC2)cc1	13.8	x	0.9	4.0	-10.1%
Cc1cc(Nc2ccc3c(c2)OCCO3)n2ncnc2n1	-7.4	-2.7	2.0	9.4	-4.3%
O=C(Nc1nc(-c2ccccc2)cs1)C1CCCO1 (centres undefined)	-2.3	-22.1	3.8	-4.2	-14.7%
O=C(NCc1nnc(SCc2ccc(C(F)(F)F)cc2)n1-c1ccccc1)C12CC3CC(CC(C3)C1)C2	-37.0	-16.2	13.2	8.5	11.4%
CCOc1ccccc1NC(=O)Nc1cc(C(=O)O)ccc1C	3.2	x	-0.6	-5.4	-7.6%
CCCN(Cc1ccccc1)C(=S)Nc1ccc(F)cc1	8.7	x	0.0	-7.9	-4.7%
COC(=O)[C@H](Cc1ccccc1)NC(=O)NCc1ccccc1	x	x	0.8	0.2	2.9%
CC1=CC(C)=Nc2ccccc2N1	4.3	-15.0	-2.7	1.2	-4.7%
COc1cc(-c2nc3ccc4ccccc4c3c3c2CCC3)ccc1O	-32.3	-2.7	9.1	u	20.8%
COc1ccc(-c2nc(CN3CCCCC3CCc3ccccn3)c(C)o2)cc1 (centres undefined)	7.6	x	1.8	-7.0	3.2%
CC(C)(C)n1nc2c(c1NC(=O)c1cc3ccccc3o1)CSC2	1.7	x	0.1	4.9	3.6%
O=c1nc(-c2ccccc2)n(-c2ccc(Cl)cc2)[nH]1	-1.9	-40.0	-1.7	2.3	14.4%
(cont.)
SMILES	Arbovirus anti	YopH PTP inh	RecA intein inh	Mtb bLac sens	Mtb growth	others
COc1ccccc1NC(=O)C1CCN(C(=O)c2ccc(C(C)(C)C)cc2)CC1	x	x	4.0	0.6	x
COc1ccc(CN2CCCC(CO)(Cc3ccc(F)cc3)C2)cc1C (centres undefined)	x	x	0.3	-8.3	x
CCOc1ccc(-n2c(=S)sc3c(=O)[nH]c(SCC(=O)C(C)(C)C)nc32)cc1	32.9*	x	-1.5	12.2	-15.2%
Cn1cnc([N+](=O)[O-])c1SCC(=O)NN	x	x	3.9	-5.3	x
OCCSc1nc2ccccc2n1CCOc1ccccc1	2.2	-15.7	1.0	-2.8	-5.4%
O=C(c1ccc(F)cc1F)N1CCN(c2ncccn2)CC1	-1.0	-165.0	-1.3	-3.1	3.9%
O=[N+]([O-])c1cccc(NC(=S)N2CCOCC2)c1	1.5	x	-2.9	-2.5	6.5%
CCC1CCCCN1C(=S)NC(=O)c1cccc([N+](=O)[O-])c1 (centres undefined)	x	x	2.2	74.4	x
Cc1cc(NC(=O)CSc2nc(-c3ccc(Cl)cc3)cs2)no1	-8.6	-6.8	-0.8	94.4	28.4%
O=C(c1ccco1)N1CCN(C(=O)C2c3ccccc3Oc3ccccc32)CC1	0.2	-28.5	1.3	1.0	-2.4%
CCN1C(=O)NC(c2cccnc2)C(C(=O)OC)=C1C (centres undefined)	-3.3	-36.6	0.1	-4.0	0.1%	Arbovirus anti repeat=-1.9
O=C(Nc1ccccc1N1CCOCC1)c1ccco1	x	x	0.1	0.5	x
Cc1ccc(N=C(/N=C(\N)N[N+](=O)[O-])Nc2ccc(C)cc2)cc1	x	x	0.8	-7.7	x
O=C(O)C1C2C=CC(C3CC23)C1C(=O)N1CCc2ccccc21 (centres undefined)	6.5	8.7	2.0	x	12.4%
O=C(CN1CCN(c2ccc(F)cc2)CC1)Nc1cc(C(F)(F)F)ccc1Cl	10.4	-36.7	2.3	-7.9	-1.0%
CCn1cc(C(=O)OCC(=O)NCc2ccc3c(c2)OCO3)c(=O)c2ccc(C)nc21	1.6	-36.6	4.8	93.1	-14.4%
COCCCNC(=S)N(CCCO)Cc1cc2cc3c(cc2[nH]c1=O)OCCO3	x	x	-0.3	0.9	x
CCCCCCn1c(SCC(=O)OC)nc2c1c(=O)[nH]c(=O)n2C	-1.4	-35.3	-0.9	4.2	7.1%	Arbovirus anti repeat=-1.4
CN(C(=O)c1ccc2c(c1)OCO2)C1(C)CCS(=O)(=O)C1 (centres undefined)	x	x	-1.6	-9.3	x
O=C(Nc1nnc(COc2ccccc2)s1)Nc1ccccc1F	x	x	-0.5	2.0	-4.5%
C=CCn1c(SCc2nc3cc(C(=O)OC)ccc3c(=O)[nH]2)nc2sc(CC)cc2c1=O	12.7	-21.6	0.1	5.2	-3.3%
CCOC(=O)CCC(=O)NCc1ccc2c(c1)cc(C)n2C	5.0	-23.3	2.8	u	-10.9%
COc1cc(SC#N)ccc1N=Cc1c(C)[nH]n(-c2ccc(C)cc2)c1=O	-13.8	-15.6	23.0	3.0	49.9%
Cc1cc(C)cc(N(C(=O)c2ccco2)C(C(=O)NC2CCCC2)c2ccncc2)c1 (centres undefined)	x	x	-3.7	5.6	x

4 entries picked at random from the list so far:
SMILES	Arbovirus anti	YopH PTP inh	RecA intein inh	Mtb bLac sens	Mtb growth	others
COc1ccc(C2CC(c3ccccc3)=NN2C(=O)CSc2ncccn2)cc1 (centres undefined)	-12.6	-24.5	-0.9	-0.9	-4.4%
COc1ccc(CN2CCCC(CO)(Cc3ccc(F)cc3)C2)cc1C (centres undefined)	x	x	0.3	-8.3	x
CN1CCN(C(=O)CCC(=O)NCc2ccc(F)cc2)CC1	x	x	-1.7	-0.1	x
CCOc1ccccc1NC(=O)Nc1cc(C(=O)O)ccc1C	3.2	x	-0.6	-5.4	-7.6%

New compounds follow
SMILES	Arbovirus anti	YopH PTP inh	RecA intein inh	Mtb bLac sens	Mtb growth	others
Cc1ccc(-n2nc(C(=O)O)nc2-c2ccccc2)cc1	9.5	8.8	0.5	-7.9	8.2%
O=C(CCN1CCN(c2ccccc2)CC1)Nc1ccc(OCc2ccccc2)cc1	-6.5	-16.2	0.6	27.8	35.3%
Clc1ccc(C2=NNC(=NCc3ccc4c(c3)OCO4)SC2)cc1	-11.8	5.4	x	-4.9	5.4%
O=C1OCC/C1=C\c1ccccc1O	19.7	-0.3	-31.1	-5.2	-0.3%
CCCn1c(=O)c(C(=O)Nc2ncccc2O)c(O)c2ccccc21	x	x	-3.9	4.1	x
CCC(=O)c1ccc(OCC(O)CN(C)C2CCCCC2)cc1 (centres undefined)	-7.8	-21.7	-0.2	-13.1	-0.2%
C=CCc1c(C)[nH]c2c(OC)cccc2c1=S	-4.0	x	3.9	-4.7	5.5%
Cc1ccc(Nc2nnc(SCC3CCCCO3)s2)cc1 (centres undefined)	-4.7	-13.9	1.4	8.7	10.1%
O=C(/C=C/c1ccco1)NC(=S)Nc1ccccc1	x	x	2.8	5.1	x
N#CC1=C(N)Oc2cc(O)c(Cl)cc2C1c1cccnc1 (centres undefined)	x	x	-114.5	5.1	x
